TDP1 inh = qHTS Assay for Inhibitors of Tyrosyl-DNA Phosphodiesterase (TDP1) | Tyrosyl-DNA phosphodiesterase 1 (Homo sapiens), Q9NUW8 | recombinant TDP1, AlphaScreen DNA substrate cleavage | Potency, µM (doses to about 130 µM), without a hit: at the highest dose activity change, negative = inhibition, actives largely listed as inhibitors | 350,000 compounds, 0.28% hits | AID 485290, 2010; note: nearly all actives have a fitted effect of over 40% in size
Target sequence (Q9NUW8 whole entry, looked up): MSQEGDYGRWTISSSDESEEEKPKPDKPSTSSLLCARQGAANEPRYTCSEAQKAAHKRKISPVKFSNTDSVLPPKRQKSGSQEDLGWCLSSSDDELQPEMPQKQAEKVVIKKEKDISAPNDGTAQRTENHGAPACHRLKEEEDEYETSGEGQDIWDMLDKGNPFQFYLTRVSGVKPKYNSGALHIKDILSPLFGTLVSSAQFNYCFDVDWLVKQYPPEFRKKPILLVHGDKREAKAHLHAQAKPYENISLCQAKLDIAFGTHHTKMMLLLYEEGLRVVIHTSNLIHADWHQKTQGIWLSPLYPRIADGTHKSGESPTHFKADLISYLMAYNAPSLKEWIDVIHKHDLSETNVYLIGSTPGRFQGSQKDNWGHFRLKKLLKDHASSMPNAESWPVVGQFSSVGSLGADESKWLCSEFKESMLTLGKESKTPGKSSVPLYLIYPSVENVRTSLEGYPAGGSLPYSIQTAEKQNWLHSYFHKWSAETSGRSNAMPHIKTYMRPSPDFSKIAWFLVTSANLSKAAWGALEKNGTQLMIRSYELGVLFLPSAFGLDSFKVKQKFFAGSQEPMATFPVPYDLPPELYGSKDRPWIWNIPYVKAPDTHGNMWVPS
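Steps: enzyme plus compound, 15 min RT; add biotin/phosphotyrosine-FITC oligonucleotide (15 nM final), react 5 min; add donor/acceptor beads (10 ug/ml final), 10 min; read AlphaScreen. Tdp1 at 1 nM final.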
N370S GC mod = qHTS Assay for Inhibitors and Activators of N370S glucocerebrosidase as a Potential Chaperone Treatment of Gaucher Disease | 330,000 compounds, 0.092% hits | N370S GC spleen homogenate, 4MU-glucoside fluorescence | Potency, µM (highest dose often 59.4 µM), for the others: at the highest dose activity change, negative = inhibition, actives largely listed as inhibitors | Lysosomal acid glucosylceramidase (Homo sapiens), P04062 | AID 2101, 2009;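 note: 0% = full enzyme activity and -100% = no enzyme basal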
An asterisk follows results filed as active; ? = inconclusive; . = not tested or not shown; & = joins results of further samples; [ ] = another dose, or the depositor's remark. Calls come from the whole dose curve; as a rule, active = well fitted curve in the direction sought with a large enough effect; inconclusive = small, poorly fitted or top-dose-only effect, or another doubt; inactive = no such curve, though single readings can be large; an effect the other way counts as inactive or inconclusive. Unless noted, % is set by controls: 0 for no effect and ±100 for the full control effect; potency is the fitted concentration of half-maximal effect. Only part of the results is shown; most or all hits stand in other tables.

SMILES	TDP1 inh	N370S GC mod
Cc1ccc(-c2cc(-c3nnc(SCC(=O)NCC(C)C)n3N)c3ccccc3n2)cc1	3%	-2%
O=C(NCc1ccc2c(c1)OCO2)Nc1cccc(Cl)c1	1%	9%
O=C1CCCc2c1nn(-c1ccccc1)[n+]2[O-]	0%	5%
Cc1cc(NS(=O)(=O)c2ccc3oc(=O)c4ncn(C)c4c3c2)ccc1Br	3%	.
COc1ccc(S(=O)(=O)N(C)c2nc3ccccc3n3c(CC(C)C)nnc23)cc1	2%	1%
CCCNC(=O)C1CN(S(=O)(=O)c2ccccc2)CCN1S(=O)(=O)c1ccccc1 (stereo unspecified)	-1%	29%
CCOC(=O)CN(C#N)c1nc(N(C)C)nc(N(C)C)n1	3%	19%
O=C(COc1ncnc2ccccc12)NCCc1ccc(F)cc1	0%	-3%
N#Cc1cc([N+](=O)[O-])ccc1Oc1cccc(/C=N/NC(=O)c2cccc(Cl)c2)c1	10%	22%
O=C(Nc1ccc(F)cc1)c1oc2ccccc2c1NC(=O)C1CCCC1	1%	0%
CCC1(c2ccccc2)NC(=O)N(Cc2cccc([N+](=O)[O-])c2)C1=O (stereo unspecified)	.	-25%
CSc1nc2c(c(=O)[nH]1)C(c1cccc(Cl)c1)CC(=O)N2 (stereo unspecified)	1%	-14%
Cc1sc(NC(=O)COc2ccccc2)c(C#N)c1C	0%	15%
Nc1ccc(Oc2ccc(Cl)cc2)cc1	8%	4%
Cc1cccc(N2CCN(Cc3ccc([N+](=O)[O-])o3)CC2)c1C	.	-9%
COc1cccc(CNC(=O)c2nnn(CC(=O)Nc3ccc(C)c(C)c3)c2N)c1	-6%	1%[2.35 µM]
CCOC(=O)c1ccccc1NC(=O)/C=C/c1cc(OC)c(OC)c(OC)c1	3%	16%
COc1cc(C(=O)Oc2cc(N)n(S(=O)(=O)c3ccc(F)cc3)n2)cc(OC)c1OC	4%	-21%
O=C(Nc1ccccc1)Nc1ccccc1C(=O)NCc1ccccc1	4%	-6%
CCOC(=O)c1c(S(=O)(=O)Nc2ccccc2OCC)c(C)n(C)c1C	3%	-2%
CCCOc1ccc(C2C(=O)N(C3CCCCC3)CC(=O)N2C2CC2)cc1OC (stereo unspecified)	6%	-22%
CCOC(=O)C1=Nc2ccccc2C1=[N+]=[N-]	0%	-8%
CN(c1ccccc1)S(=O)(=O)c1ccc(C(=O)OCC(=O)NCc2ccco2)cc1	10%	-2%
CCCOc1ccc(-c2nnn(CC(=O)c3ccc4c(c3)OCCO4)n2)cc1	2%	19%
CC(C)(C)C(=O)NC(NC(=O)C(C)(C)C)c1ccc([N+](=O)[O-])cc1	-1%	0%

Next section
SMILES	TDP1 inh	N370S GC mod
N/C(=N\OC(=O)c1ccco1)c1cccnc1	-7%	2%
CC1CCCN(C(=O)C23CCC(C)(C(=O)C2)C3(C)C)C1 (stereo unspecified)	-2%	11%
CC1CSc2ccccc2NC1=S (stereo unspecified)	0%	7%
Cn1c(CCN2CCN(c3ccccn3)CC2)nc2cc(NS(=O)(=O)c3ccccc3)ccc21	5%	-16%
O=C(COC(=O)Cn1cnc2ccccc21)Nc1ccccc1C(F)(F)F	1%	.
O=C(NNC1CC(=O)N(c2ccccc2)C1=O)c1cccnc1 (stereo unspecified)	0%	-1%
N#CC(C#N)=C1C=CC=CN1/C(=C\c1ccccc1)C(=O)c1cccs1	5%	5%
CN(CC(=O)Nc1ccc(Cl)c(C(F)(F)F)c1)C(=O)CCN1C(=O)C2CCCCC2C1=O (stereo unspecified)	.	1%
Cc1cccc(C)c1NC(=O)C(=O)c1cn(C)c2ccccc12	5%	8%
CC(OC(=O)Cc1c[nH]c2ccccc12)C(=O)Nc1ccccc1F (stereo unspecified)	-1%	3%
Cc1cccc(NC(=O)Nc2cc(C)on2)c1	4%	26%
Cc1ccc(C(=O)N/C(=C\c2ccco2)C(=O)NCCN2CCOCC2)cc1C	1%	-13%
CCOc1ccccc1C(=O)N(Cc1cccs1)C1CCS(=O)(=O)C1 (stereo unspecified)	4%	-3%
Cc1onc(-c2ccccc2)c1-c1ccc(S(N)(=O)=O)cc1	10%[56.1 µM]	-9%&-13%
CC(=O)Oc1ccc(N2C(=O)c3cccc4c([N+](=O)[O-])ccc(c34)C2=O)cc1	.	-10%
CNC(=O)/C(C#N)=C/c1cccc(Oc2ccccc2)c1	1%	-2%
COc1cc(OC)cc(C(=O)NNC(=O)Cc2cccs2)c1	1%	.
CN1C(=O)c2cccc(NC(=O)Cc3ccccc3)c2C1=O	8%	-3%
COc1ccccc1N1CCN(Cc2cccc(OC)c2OC)CC1	-2%	-2%
O=C(NC1CCCC1)C(=O)c1c[nH]c2ccccc12	3%	-2%
Cc1cccc(Nc2nc(C)cc(C)c2C#N)c1	.	4%
COc1ccc(CCNc2ncnc3c2[nH]c2cc(OC)c(OC)cc23)cc1OC	2%	-11%
O=C1N=C(N2CCOCC2)S/C1=C/c1cccs1	0%	1%[12.8 µM]
Cc1ccc(S(=O)(=O)N2CCOCC2)cc1NC(=O)COC(=O)c1ccc(Br)cc1	-2%	.
CC(CN1CCCCC1)NC(=O)c1cc(-c2ccccn2)nc2ccc(Cl)cc12 (stereo unspecified)	5%	-5%

Already shown: entries from further up.
SMILES	TDP1 inh	N370S GC mod
N/C(=N\OC(=O)c1ccco1)c1cccnc1	-7%	2%
CC1CCCN(C(=O)C23CCC(C)(C(=O)C2)C3(C)C)C1 (stereo unspecified)	-2%	11%

4 entries already listed, sorted by their value in N370S GC mod, falling:
SMILES	TDP1 inh	N370S GC mod
Cc1cccc(Nc2nc(C)cc(C)c2C#N)c1	.	4%
CC(C)(C)C(=O)NC(NC(=O)C(C)(C)C)c1ccc([N+](=O)[O-])cc1	-1%	0%
Cn1c(CCN2CCN(c3ccccn3)CC2)nc2cc(NS(=O)(=O)c3ccccc3)ccc21	5%	-16%
CCC1(c2ccccc2)NC(=O)N(Cc2cccc([N+](=O)[O-])c2)C1=O (stereo unspecified)	.	-25%

New compounds follow
SMILES	TDP1 inh	N370S GC mod
Cc1ccc(NS(=O)(=O)c2ccc(OCC(=O)NCc3cccnc3)cc2)cc1	8%	7%
OCC(Cc1ccccc1)Nc1c2ccccc2nc2ccccc12 (stereo unspecified)	-3%	8%
C=CCn1c(Cc2cccs2)nnc1SCC(=O)c1ccc(F)cc1	1%	5%
CCCCN1/C(=C/c2cccc[n+]2C)Sc2cc(NC(C)=O)ccc21	.	-1%
c1ccc(N2CC[N+]3(CCCC3)CC2)nc1	3%	1%
CC(C)Oc1ccc(S(=O)(=O)N2CCOCC2)cc1NC(=O)C(C)Oc1ccc(F)cc1 (stereo unspecified)	0%	2%
CCc1c(O)nc(SCc2nc3ccccc3c(=O)[nH]2)[nH]c1=O	-5%	15%
CN(C(=O)c1ccc2nc(N)sc2c1)c1ccccc1	.	-11%
CNC(=S)N(Cc1cccs1)Cc1cc2cc(OC)ccc2[nH]c1=O	1%	-8%
CN(CCO)c1cnccn1	3%	5%
O=C(O)c1ccc(Cl)c(S(=O)(=O)Nc2ccc3[nH]c(=O)[nH]c3c2)c1	.	1%
COc1c(O)ccc(/C=N/NC(=O)c2ccc3c(c2)OCCO3)c1[N+](=O)[O-]	3%	-2%
CSc1ccccc1NC(=O)c1ccccn1	1%	20%
Cn1ccc(-c2ccccc2)c(C#N)c1=O	-4%	11%
CCC(=O)N(Cc1cc(=O)[nH]c2ccccc12)c1ccc(OC)cc1	.	0%
O=C1NN=C(c2ccc(Cl)cc2)CC1c1c[nH]c2ccccc12 (stereo unspecified)	-5%	3%
CC(=O)c1c(C)[nH]c(C(=O)N2CC(C)CC(C)C2)c1C (stereo unspecified)	.	-6%
Cc1cccc2c1OCC/C2=N\NC(=O)COc1ccccc1Cl	2%	13%
O=C1CCC/C(=N\NC(=O)c2ccc(NS(=O)(=O)c3ccc(Br)cc3)cc2)C1	3%	-7%
O=c1[nH][nH]c(C(F)(F)F)c1C=NCc1cccs1	1%	-7%
COc1ccc(CCNC(=O)c2ccc3c(c2)NC(=O)C(C(C)C)N3)cc1OC (stereo unspecified)	-9%	2%
COc1ccccc1NS(=O)(=O)c1ccc2oc(N)nc2c1	0%	2%
CCOc1ccc(CN2CCNC(=O)C2CC(=O)NC2CCOCC2)cc1 (stereo unspecified)	2%	1%
CCOC(=O)c1sc(=S)n(C)c1NC(=O)c1cccc(Br)c1	2%	5%
COc1ccc(C)cc1NC(=O)C(NC(=O)c1cc(OC)c(OC)c(OC)c1)C(C)C (stereo unspecified)	3%	-2%

Additional structures:
SMILES	TDP1 inh	N370S GC mod
COc1ccc(C(=O)OCC(=O)Nc2cc(S(=O)(=O)N3CCOCC3)ccc2N2CCCC2)cc1	3%	-1%
Cc1cc(C(=O)Nc2nnc(C3CC3)s2)c(C)s1	0%	.
CCOC(=O)C1=C(CC)Nc2ccccc2N=C1NC(=O)c1ccc(S(=O)(=O)N(C)C)cc1	-2%	3%
COc1ccc(N2CCN(C(=O)COC(=O)c3ccc(C)o3)CC2)cc1	0%	3%
CCOC(=O)c1ccc(NC(=S)NCCCN2CCOCC2)cc1	4%	2%
O=C(NCc1ccccn1)C1CCN(S(=O)(=O)c2cccs2)CC1	5%	-8%
O=C(Nc1nnc(S(=O)(=O)N2CCOCC2)s1)c1ccc(Cl)cc1	.	-1%
O=C(O)c1ccc(NC(=O)C2C3CCC(C3)C2C(=O)O)cc1 (stereo unspecified)	1%	-21%
O=C(COc1ccc(S(=O)(=O)N2CCOCC2)cc1Cl)N1CCCC1	8%	-5%
NC(=O)C1CC(=O)N(c2ccc(OCc3ccccc3Cl)cc2)C1 (stereo unspecified)	5%	-3%
O=C(NCCCO)C(=O)Nc1c2c(nn1-c1ccc(F)cc1)CSC2	5%	.
O=C1[C@@H]2C(Cc3ccc(O)cc3)NC3(C(=O)Nc4ccc(F)cc43)[C@@H]2C(=O)N1c1ccccc1 (stereo partly specified)	2%	-2%
CSc1ccc(CNC(=O)C2CCC(=O)N(CCc3cccc(F)c3)C2)cc1 (stereo unspecified)	5%	-19%
CCOC(=O)CCc1c(C(=O)OCC)[nH]c(CC)c1C(=O)OCc1ccccc1	1%	1%
CC1(NC(=O)N2CCCCC2)CCS(=O)(=O)C1 (stereo unspecified)	2%	0%
CCOc1cc(-c2noc(CCCC(N)=O)n2)cc(Br)c1OC	2%	2%
CCOc1ccc2[nH]c(=O)c(CN(CCO)C(=O)CC)cc2c1	7%	3%
COc1ccc(-c2nc(NCCCN(C)C)c3ccccc3n2)cc1	.	-2%
CCN(CC)CCCN(Cc1cc2cc(OC)ccc2[nH]c1=O)C(=O)Nc1ccccc1	.	-14%
COC(=O)CSc1nnc2n1C(C)(C)Cc1ccccc1-2	-8%	5%
O=C(CSc1nc2ccccc2o1)NCC1CCCO1 (stereo unspecified)	.	-1%
COc1ccc(NC(=O)Cc2nc3ccccc3[nH]2)cc1	5%	1%
CC(C)OCCCNS(=O)(=O)c1ccc2ccccc2c1	-1%	4%
CCSc1nnc(NC(=O)c2cccc3ccccc23)s1	4%	-1%
COc1ccc(/C=N/c2c(-c3ccc(OC)cc3)nc3n2CCS3)cc1	-2%	-5%

Remaining list, next part
SMILES	TDP1 inh	N370S GC mod
O=C(NN1CCOCC1)c1ccc(S(=O)(=O)N2CCCCC2)cc1	-2%	5%
O=C(Cn1cnc2c(oc3ccccc32)c1=O)NCc1ccccc1	2%	-15%
C=CCSc1nnc(C)c(/C=C/Nc2ccc(Cl)cc2)n1	5%	1%
COc1cccc(C2=NOC(C(=O)NCC3CCCO3)C2)c1 (stereo unspecified)	0%	-24%
CNC(=O)CC1C(=O)N(c2ccc(Cl)cc2)C(=S)N1CCc1ccc(OC)c(OC)c1 (stereo unspecified)	-11%	4%
CCOC(=O)CC1=Nc2ccccc2NC(=O)C1	0%	1%
Cn1c(CNC(=O)CNC(=O)Cc2ccccc2)cc(=O)n(C)c1=O	2%	-2%
CCC(C)(C)NC(=O)CN(Cc1ccccc1Cl)C(=O)CCC(=O)Nc1cc(C)ccn1	0%	-4%
Cc1c(C)c2ccc(OC3CCCCC3=O)cc2oc1=O (stereo unspecified)	7%	4%
CC(=O)N1CC[n+]2c(-c3ccc(Cl)cc3)csc21	0%	3%
C=CCN(c1ccccc1)S(=O)(=O)c1ccc2c(c1)NC(=O)C(C)C(=O)N2 (stereo unspecified)	.	?
COCCCNC(=O)c1ccc2c(=O)n(Cc3ccc(OC)cc3)c(=O)[nH]c2c1	2%&6%	26%
O=C(NC(=S)NCc1ccccc1)c1cccs1	3%	-8%
O=C(Cn1cnc2c(nnn2-c2cccc(Cl)c2)c1=O)N1CCOCC1	5%	8%
O=C(COc1ncnc2ccccc12)NCc1ccco1	5%	6%
CC1CN(S(=O)(=O)c2ccc(F)cc2)CN1C(=O)N1CCOCC1 (stereo unspecified)	.	-6%
COc1ccccc1N1CCN(C(=O)CN2C(=O)c3ccccc3C2=O)CC1	0%	6%
CC(C)n1cnc2c(Nc3cccc(F)c3)nc(NCCO)nc21	4%	-16%
Cc1ccc2cc3cc(C(=O)NCc4ccc5c(c4)OCO5)oc3nc2c1	0%	9%

Single records, as listed above. Order of screens: TDP1 inh, N370S GC mod
Results for `CCN(CC)CCCN(Cc1cc2cc(OC)ccc2[nH]c1=O)C(=O)Nc1ccccc1` = ., -14%
Results for `Cc1cccc(C)c1NC(=O)C(=O)c1cn(C)c2ccccc12` = 5%, 8%
Results for `O=C(Nc1ccccc1)Nc1ccccc1C(=O)NCc1ccccc1` = 4%, -6%
